Screening data (PubChem BioAssay)
D2 agonist: human D2 receptor agonism in beta-arrestin assay. 360,000 tested, 0.084% active. DiscoveRx PathHunter D2 beta-arrestin, luminescence, 90 min; 100% = 57 uM dopamine signal. activation, % (no concentration beside the values). AID 624465; in the data active = activation above about 40%; inconclusive = about 15% to 40%; inactive = below about 15%; note: compound concentration not given in the record; the text of the record calls up to 30% inactive
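DiscoveRx PathHunter D2 beta-arrestin cells (2,100/well) attached overnight, then compound-stimulated 90 min at 37 C in HBSS/10 mM HEPES/0.1% Tween-20 buffer; beta-galactosidase complementation read by luminescence after 1 h at ambient temperature. Dopamine 57 uM final (EC100) as control.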
Six1-Eya2 inh: Six1/Eya2 interaction inhibition | 360,000 tested, 0.56% active | activity change, % (concentration not given with the values) | Q15475+O00167 | AID 651725 | AlphaScreen GST-Six1/His-Eya2 binding, biochemical; active compounds read low; control for the full effect not named in the record; in the data active = activity change below about -65%; inconclusive = about -30% to -65%; inactive = above about -30%; note: % is set by controls: 0 for no effect and ±100 for the full control effect
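Homogeneous AlphaScreen proximity assay pairing GST-Six1 with His-tagged Eya2 (added as 5X mix: 250 nM and 500 nM) in 50 mM Tris pH 8.0, 300 mM NaCl, 1 mM TCEP. Glutathione donor and nickel acceptor beads; 1 h, 37 °C, dark.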
TRPV1 potentiator: potentiators of human vanilloid receptor 1 (TRPV1); Q8NER1; TRPV1-expressing cells, Fluo-8 calcium influx, capsaicin EC20 potentiation; host cell line not named in the record; control for the full effect not named in the record; potentiation, % at 8.33 µM; 320,000 tested, 0.02% active; active means potentiation above 80%; inconclusive means 30% to 80%; inactive means below 30%; note: 0% is about no effect
Target sequence (Q8NER1 whole entry, looked up): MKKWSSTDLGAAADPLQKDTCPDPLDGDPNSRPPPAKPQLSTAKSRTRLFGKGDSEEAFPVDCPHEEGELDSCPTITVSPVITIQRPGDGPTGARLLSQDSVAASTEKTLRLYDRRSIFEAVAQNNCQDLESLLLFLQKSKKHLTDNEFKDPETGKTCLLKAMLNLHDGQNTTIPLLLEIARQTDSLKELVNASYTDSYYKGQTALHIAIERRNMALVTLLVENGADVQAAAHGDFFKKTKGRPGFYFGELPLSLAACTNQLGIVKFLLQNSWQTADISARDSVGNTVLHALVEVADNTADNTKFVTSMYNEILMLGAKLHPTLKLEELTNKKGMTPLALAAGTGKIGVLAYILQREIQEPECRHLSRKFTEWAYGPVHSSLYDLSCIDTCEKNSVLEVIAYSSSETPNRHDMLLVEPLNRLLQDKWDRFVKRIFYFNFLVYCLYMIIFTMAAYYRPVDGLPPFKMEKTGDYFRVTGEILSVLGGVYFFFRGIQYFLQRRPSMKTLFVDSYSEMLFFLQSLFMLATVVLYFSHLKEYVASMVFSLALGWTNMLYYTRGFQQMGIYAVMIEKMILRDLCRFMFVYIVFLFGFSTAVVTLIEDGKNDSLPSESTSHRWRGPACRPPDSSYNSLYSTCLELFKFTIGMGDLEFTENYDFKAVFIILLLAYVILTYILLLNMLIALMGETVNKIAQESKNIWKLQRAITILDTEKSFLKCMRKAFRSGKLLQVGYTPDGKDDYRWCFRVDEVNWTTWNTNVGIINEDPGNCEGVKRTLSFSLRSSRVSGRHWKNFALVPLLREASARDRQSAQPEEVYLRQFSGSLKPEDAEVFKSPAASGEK
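TRPV1-expressing cells were cultured overnight at 35.5C and loaded with Fluo-8 calcium dye for 40 to 90 min at room temperature. After a 10 s baseline, compound was added and calcium influx was read kinetically for 3 min (ex 480/em 520 nm).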
D2 potentiator: human D2 receptor positive allosteric modulation | DiscoveRx D2 beta-arrestin cells, luminescence, 90 min; 100% = 57 uM dopamine signal | potentiation, % (concentration not given with the values) | 360,000 tested, 0.23% active | AID 624464; active = potentiation of 50% or more; inconclusive = 30% to 50%; inactive = 30% or less;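 note: compound concentration not given in the record; tested on top of an EC20 dose of dopamine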
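PathHunter D2 cells, attached overnight at 37 deg C, received compound in DMSO plus dopamine at EC20 (50 nM final) for 90 min at 37 deg C. Beta-arrestin recruitment was read as luminescence after 1 h with detection reagent at ambient temperature.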
Sfp PPTase inh: inhibitors of Bacillus subtilis Sfp phosphopantetheinyl transferase | Potency, µM, without a hit: max response, negative = inhibition, actives largely listed as inhibitors | Biochemical Sfp PPTase activity, qHTS | 310,000 tested, 3.5% active; active = well fitted inhibition curve with a large enough effect; inconclusive = small, poorly fitted or top-dose-only effect, or another doubt; inactive = no such curve, though single readings can be large or run the other way;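 note: the enzyme is Sfp with the accession as filed and its product quenches rhodamine fluorescence; potency is the fitted concentration of half-maximal effect; 0% = enzyme reaction without inhibitor and -100% = no enzyme wells; top concentration of the series not given in the record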
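Sfp 15 nM + cpd, 15 min RT; start w/ rhodamine-CoA 5 uM, BHQ-2-YbbR 12.5 uM (final); 50 mM Hepes pH 7.6, 10 mM MgCl2, 0.01% NP-40, 0.01% BSA; read 525/598 nm at 0 and 30 min.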
PINK1 modulator: PINK1 expression modulation; 410,000 tested, 0.2% active; AID 624263; Potency, µM (titrated, usually from 76.6 µM), for the others: at the top dose activation (PINK1 increase), hits mostly activators; PINK1 immunofluorescence, high-content cytometry, 24 h; active = well fitted activation curve with a large enough effect; inconclusive = small, poorly fitted or top-dose-only effect; inactive = flat fitted curve, though single readings scatter; cell line not stated here;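 note: potency is the fitted concentration of half-maximal effect; % of control where 0% means no effect; nearly all actives have a fitted effect of over 65% in size; a mitochondrial uncoupler was the plate control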
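PINK1 protein, normally rapidly degraded, was detected by immunofluorescence after 24 hour compound treatment of a stable cell line. Titration data (5 concentrations) came from laser-scanning cytometry, with CCCP-treated wells as controls.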
CtBP-E1A blk: CtBP/E1A binding inhibition | activity change, % (no concentration beside the values) | AID 651724 | 340,000 tested, 0.49% active | AlphaScreen GST-E1A/His-CtBP binding, 1536-well; active compounds read low; control for the full effect not named in the record; in the data active means activity change below about -65%; inconclusive means about -30% to -65%; inactive means above about -30%; note: % is set by controls: 0 for no effect and ±100 for the full control effect
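AlphaScreen with 125 nM GST-E1A and 125 nM His-CtBP (5X stocks) in Tris pH 8.0, 300 mM NaCl, BSA, Tween 20, TCEP. Compounds preincubated 2 h at 37 deg C, then glutathione donor/nickel acceptor beads added for 1 h at 37 deg C in dark.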
The depositor's hits bear a star; ? = inconclusive; / = not tested or not shown; & = joins results of further samples; ! = not active in a repeat; [ ] = dose if it differs, or a comment.

The opening four compounds as a preview:
SMILES	D2 agonist	Six1-Eya2 inh	TRPV1 potentiator	D2 potentiator	Sfp PPTase inh	PINK1 modulator	CtBP-E1A blk
CCOC(=O)N1CCC2CC1c1cc(-c3cccc(OC)c3)ccc12 (stereo unspecified)	0.7	7	/	/	/	12%	14
COC(=O)C1=CN(Cc2ccc(OC)cc2)C=C(C(=O)OC)C1c1cccs1	6.0	28	6	5	?	6.3%	44
CC(=O)Nc1ccc(NC2=Nc3ccccc3N3C2=Nc2c(c(C)nn2-c2ccccc2)C3c2ccccc2)cc1 (stereo unspecified)	-2.3	6	?	-2	10%	0.9%	3
Cc1ccc(C(=O)CSc2nc3cc(S(=O)(=O)N4CCOCC4)ccc3o2)cc1	-0.6	6	1	-4	-15%	0.7%	-3

The whole of this part, from the start:
SMILES	D2 agonist	Six1-Eya2 inh	TRPV1 potentiator	D2 potentiator	Sfp PPTase inh	PINK1 modulator	CtBP-E1A blk
CCOC(=O)N1CCC2CC1c1cc(-c3cccc(OC)c3)ccc12 (stereo unspecified)	0.7	7	/	/	/	12%	14
COC(=O)C1=CN(Cc2ccc(OC)cc2)C=C(C(=O)OC)C1c1cccs1	6.0	28	6	5	?	6.3%	44
CC(=O)Nc1ccc(NC2=Nc3ccccc3N3C2=Nc2c(c(C)nn2-c2ccccc2)C3c2ccccc2)cc1 (stereo unspecified)	-2.3	6	?	-2	10%	0.9%	3
Cc1ccc(C(=O)CSc2nc3cc(S(=O)(=O)N4CCOCC4)ccc3o2)cc1	-0.6	6	1	-4	-15%	0.7%	-3
CCCCn1c(=O)cc(O)c2ccccc21	-2.2	0	0	-21	-1%	-3.0%[38.3 µM]	37
COc1ccc(C(=O)O/N=C(\N)c2ccccn2)cc1	4.2	-13	-12	20	19%	4.9%	-5
CC(C)(C)c1ccccc1OCC(=O)Nc1ncn[nH]1	-2.1	-24	-11	-7	1%	0.0%	-11
CCN(CC)C(=O)N1CCN(S(=O)(=O)c2ccc(C)cc2)CC1	-1.4	4	8	5	5%	2.8%[38.3 µM]	1
O=C(CN1CCN(c2ccc(O)cc2)CC1)NC(=O)NCc1ccco1	4.0	9	-3	-17	40µM*	0.1%	22
O=C1c2c(Br)c(Br)c(Br)c(Br)c2C(=O)N1c1ccccn1	-5.0	-6	3	-1	7%	-1.2%	-5
CN(c1ccccc1)S(=O)(=O)c1cccc(C(=O)NCC(c2cccs2)N2CCOCC2)c1 (stereo unspecified)	-0.5	-1	/	-18	/	1.3%	-2
CCOCCCNC(=O)CN1CCN(Cc2ccccc2C)C1=O	1.9	-1	-12	-5	15%	-0.7%	7
CCCn1c(=O)c(C(=O)NCc2ccccn2)c(O)c2ccccc21	-1.6	11	-8	-3	-5%	2.6%	-9
NC(=O)C1(N2CCCCC2)CCN(Cc2nc(-c3cccs3)no2)CC1	-1.8	6	-8	-14	4%	0.9%	/
COC(=O)C1=C(O)/C(=C\c2sccc2C)N=C1C	0.3	1	13	-9	5%	1.1%	-11
CCCCCCn1nc(C(=O)N(CCOC)c2c(N)n(CCCC)c(=O)[nH]c2=O)c2ccccc2c1=O	-4.2	-3	-9	-18	/	0.0%	9
O=C(O)c1cccc(Nc2ccc3nonc3c2[N+](=O)[O-])c1	-3.2	-5	6	-2	23%	7.9%	-7
N/C(=N\OC(=O)c1cccc(F)c1)c1ccccc1	?	48	0	57*	0%	1.8%	22
Cc1cc(Cl)c(OCCCSc2nc(C)cc(=O)[nH]2)c(Br)c1	-1.2	-2	-7	17	23%	3.8%[38.3 µM]	1
COc1ccc(S(=O)(=O)N2CCN(Cc3ccc(OC)c(OC)c3)CC2)cc1	-3.2	15	-6	-6	8%	-2.2%	-19
O=C(C1CCCCC1)N1C[C@@H](O)[C@H](n2cc(-c3ccc(F)cc3)nn2)C[C@@H]1c1ccc(Cl)cc1	-0.6	2	/	-3	/	5.1%	4
COc1ccc(CCNc2cc(C)nc3c(-c4ccccc4OC)cnn23)cc1OC	0.0	-7	8	7	-6%	4.4%	10
Cn1cc(Br)c(C(=O)NNC(=O)Cc2ccc(Cl)cc2)n1	1.1	-1	12	-5	1%	-1.1%	8
O=C(NNC(=O)c1ccc([N+](=O)[O-])cc1)c1ccncc1	-7.1	4	0	-3	10%	1.4%	1
Cc1cc([N+](=O)[O-])c(C)cc1-c1ccc(/C=N/NC(=O)c2cccnc2)o1	-2.4	-9	11	-3	-20%	3.8%	-4
Fc1ccc(OCc2nnc(SCCN3CCOCC3)o2)cc1	-3.1	-3	-14	-6	12%	-0.4%	2
CN(Cc1ccco1)C(=O)c1ccc(CNS(=O)(=O)c2ccc3c(c2)C(C)(C)C(=O)N3C)cc1	4.0	3	21	-10	17%	0.2%	-25
S=C(NCCC1=CCCCC1)NCc1ccco1	3.1	-1	-9	-15	-20%	0.2%	3
CCOc1ccc(CCN2CN(C3CCCCC3)CNC2=S)cc1OCC	-1.5	-8	0	-9	22%	-0.7%	-6
Cc1cc(C(=O)OCC(=O)Nc2ccccc2C(F)(F)F)on1	-2.7	16	/	-2	/	1.9%	-8
CCn1c(SC(C)C(=O)NCC2CCCO2)nc2ccccc21 (stereo unspecified)	-0.9	-8	12	-16	/	2.1%	30
CC1CCN(c2ccc([N+](=O)[O-])cc2C(=O)N2CCOCC2)CC1	-7.9	5	-16	13	10%	-1.9%	-9
O=C(Nc1ccc(N2CCN(C(=O)c3cccs3)CC2)c(Cl)c1)c1ccco1	-1.2	-4	-9	-9	1%	-0.5%[38.3 µM]	-9
COc1ccccc1-c1nnc(SCC(=O)O)n1-c1ccc(C)cc1	-0.9	5	-5	-4	9%	-1.3%	3
COc1cc(C(=O)Nc2c(C(=O)N3CCOCC3)oc3ccccc23)cc(OC)c1OC	-0.6	1	-19	-4	8%	2.3%	/
c1cc2c(nn1)CCc1nonc1-2	-9.5	-4	25	-10	0%	0.1%	-4
COc1ccc(NC(=O)N(C)C[C@H]2Oc3c(NC(=O)Nc4ccccc4)cccc3C(=O)N([C@H](C)CO)C[C@@H]2C)cc1	1.6	0	/	2	/	1.2%	3
CCOc1ccccc1NC(=O)Cc1coc2ccc(C)cc12	1.7	7	17	1	11%	3.3%	12
CCCCC(=O)N=c1sc2cc(S(C)(=O)=O)ccc2n1C	-2.3	21	-2	-11	13%	-0.1%	0
COc1ccc(N(C)C(=O)c2onc3c2CCCC3)cc1	-2.2	-6	-7	-15	26%	1.0%	9
COc1ccccc1CN1CCN(C(=O)c2ccncc2)CC1	0.0	11	-1	-12	?	0.1%	1
CCOC(=O)N1CCN(S(=O)(=O)CCNC(=O)c2ccc(OC)cc2)CC1	-5.0	-7	0	2	/	-0.6%	2
CCOC(=O)c1c(C)n(C)c2c(C)cc(O)c(OC(C)=O)c12	13	-5	12	?	10%	2.2%	3
CCOC(=O)c1cnc(SCC)[nH]c1=O	1.1	10	12&5	-13	12%&21%	-2.2%	4
Cn1c(=O)c(=O)n(C)c2cc(S(=O)(=O)N3CCOCC3)ccc21	1.8	2	4	3	8%	-0.1%[38.3 µM]	14
COc1ccc(Cl)cc1C(=O)NNC(=O)CSc1nnc2ccccn12	-4.7	14	-9	-12	-7%	-1.4%	-9
COc1cccc(CNc2nc3nc(C)cc(=O)n3[nH]2)c1	-2.7	9	?	-6	-5%	1.2%	-2
COc1ccc(S(=O)(=O)N2CCN(CC(=O)Nc3ccccc3Cl)CC2)cc1	-0.6	2	?	1	18%	1.5%	11
Cc1cc(O)c2c(CN3CCN(Cc4ccccc4)CC3)cc(=O)oc2c1	0.1	-9	-2	-5	7%	4.8%	/
COc1ccc(NS(=O)(=O)c2ccc3nc(COc4ccc5ccccc5c4)[nH]c3c2)cc1	8.8	-18	30	21	-6%	8.8%	-14
S=c1[nH]cnc2sc(Nc3ccccc3)nc12	0.8	?	-12	?	2.2µM*	1.8%	/
CCOC(=O)c1sc(NC(=O)C(CC)Sc2nnc3c4ccccc4n(C(C)C)c3n2)nc1C (stereo unspecified)	0.2	1	17	1	-4%	-0.3%	7
C[C@H](O)[C@@H]1C(=O)N2CCc3ccc(N4CCN(C)CC4)cc3[C@@H]2C[C@@H]1N(C)C(=O)NC1CCCCC1	-0.3	4	/	/	/	0.7%	5
C=CCNC(=S)NN=C1CCCCCCC1	-6.5	-11	-16	-9	6%	0.8%	-1
CC(C)Cn1c(N)c(C(=O)CSc2ccc3c(c2)OCCO3)c(=O)n(C)c1=O	3.4	7	2	-5	-1%	4.0%	2
Cc1ccc(-n2c(SCC(=O)Nc3ccc(N4CCOCC4)cc3)nc3ccccc3c2=O)cc1	-0.6	-4	-6	7	?	0.2%	2
COc1cc(OC)c2c(-c3ccccc3)cc(=O)oc2c1C(CCN1CCCCC1)c1ccc2c(c1)OCO2 (stereo unspecified)	-9.9	-9	-20	-18	13µM*!	4.0%	-5
CC(C)OC(=O)/C(=C/c1ccco1)c1ccccc1	1.5	21	-15	2	45µM*	10%	40
O=C1C=CN2CCCCC2CC1 (stereo unspecified)	-0.7	1	/	/	/	1.9%	-1
COc1cccc(NC(=O)CSc2nc3ccsc3c(=O)n2-c2ccc(C(=O)O)cc2)c1	0.3	-1	-19	-3	6%	3.5%	7
Next compounds.
SMILES	D2 agonist	Six1-Eya2 inh	TRPV1 potentiator	D2 potentiator	Sfp PPTase inh	PINK1 modulator	CtBP-E1A blk
O=C(COC(=O)CCSc1ccc(Cl)cc1)NCc1ccco1	-4.8	?	-18	-11	?	0.3%	-8
Cc1nn(C)c(C(=O)NNC(=S)NC2CCCCC2)c1Br	6.6	-4	14	6	-1%	0.2%	/
NC(=O)c1ccccc1NC(=O)CS(=O)(=O)Cc1ccccc1	-2.3	25	4	0	-6%	2.2%	0
Cc1ccc(OCCC(=O)Nc2ccc(F)c(F)c2)cc1	0.0	2	-7	6	8%	2.3%	4
CCCCCCOc1ccc(/C(N)=N/O)cc1	0.6	-1	-1	-12	10%	5.5%	-2
COCCNC(=O)CSc1nc2ccccc2c(=O)n1CCC(=O)NCCc1ccc(OC)c(OC)c1	-3.0	-1	0	1	11%	0.1%	7
CCOC(=O)c1sc(NC(=O)c2ccccc2)cc1C	0.2	2	-15	-15	-3%	5.1%	11
CCC1(C)NC(=O)N(CC(=O)Nc2sc3c(c2C(=O)OC)CCCCC3)C1=O (stereo unspecified)	-1.3	0	0	-10	6%	-1.1%	-21
COC(=O)N(C)C[C@H]1OCc2cnnn2CCCC(=O)N([C@@H](C)CO)C[C@@H]1C	-1.7	4	/	-1	/	-0.9%	3
